Vaccinia mCherry – inhibitors of vaccinia virus infection (mCherry reporter signal); Vaccinia virus mCherry reporter infection, fluorescence; about a quarter of the inactives have no number; Potency, µM (titrated, usually from 36.5 µM), without a hit: top-dose activity change, negative = inhibition, actives largely listed as inhibitors; 310,000 tested, 0.63% active; AID 720579; active = well fitted inhibition curve with a large enough effect; inconclusive = small, poorly fitted or top-dose-only effect; inactive = no such curve, though single readings can be large or run the other way; tested in A549 cells; also: nearly all actives have a fitted effect of over 35% in size; inactives centre near -10
Vaccinia Venus – vaccinia inhibition (Venus reporter); Vaccinia virus Venus reporter expression, fluorescence; Potency, µM (top dose mostly 36.5 µM), without a hit: at the top dose activity change, negative = inhibition, most hits filed as inhibitors; 330,000 tested, 0.46% active; AID 720580; active means well fitted inhibition curve with a large enough effect; inconclusive means small, poorly fitted or top-dose-only effect; inactive means no such curve, though single readings can be large or run the other way; tested in A549 cells; also: nearly all actives have a fitted effect of over 30% in size; inactives centre near -10
Starred values were filed as active, the others as inactive; i = inactive; u = inconclusive; x = no result given; & = joins results of further samples; [ ] = dose if it differs, or a comment. % is scaled to controls: 0 for no effect and ±100 for the full control effect; potency is read from the fitted curve at half-maximal effect.

Value order – Vaccinia mCherry	Vaccinia Venus
- Cc1ccccc1-c1ccccc1CN1[C@@H](C(C)C)COCCS1(=O)=O
    i	-7.1%
- COc1ccc(-n2nc(C(=O)NCC(=O)N3CCOCC3)c3ccccc3c2=O)cc1Cl
    -18.4%	-8.3%
- CCC(C)c1ccccc1N1CC(C(=O)Nc2ccccc2N2CCCC2)CC1=O (stereo not drawn)
    i	-18.4%
- Cc1nc2nc(C)c(NS(=O)(=O)c3ccc(Cl)cc3)c(=O)n2[nH]1
    7.7%	3.8%
- O=C(CN1CCN(c2ncccn2)CC1)N1CCCC1
    -8.9%	1.8%
- CCC(C)N1CCN(C(=O)COc2ccc3ccccc3c2)CC1 (stereo not drawn)
    -23.4%	-9.9%
- O=C1c2ccccc2C(=O)N1CN(C(=O)COc1ccc(Cl)cc1Cl)c1cccc(F)c1
    -1.5%	-21.7%
- O=C(NCCc1ccc(Cl)cc1)c1cc2c(s1)-c1ccccc1OC2
    -10.4%	-36.4%
- COc1ccccc1N1CCN(CC(O)COc2ccc3c(c2)CCC3)CC1 (stereo not drawn)
    -23.7%	-21.5%
- CCSc1ncnc2c(C#N)c3n(c12)CCCCC3
    x	u
- CN(C)CC(C)(C)CNS(=O)(=O)c1ccc(Cl)s1
    -3.5%	1.0%
- Cc1ccc(C(=O)Cn2nnc3ccccc32)cc1
    x	2.1%
- COc1cc(SC)ccc1C(=O)Nc1cccc(S(=O)(=O)NC2=NCCCCC2)c1
    -2.0%	-14.9%
- NC(=O)c1ccc(NC(=O)COc2cccc3c2CCNC3=O)cc1
    i	-11.4%
- Nc1c(C(=O)NCc2ccccc2)nnn1Cc1cccc(Cl)c1
    -19.0%	-15.5%
- O=C1c2oc3ccccc3c(=O)c2C(c2ccccc2)N1Cc1ccc2c(c1)OCO2 (stereo not drawn)
    -10.8%	-13.4%
- CCN1CCN(c2ncnc3c2cnn3-c2ccc(C)c(C)c2)CC1
    -9.7%	-6.1%
- Cc1nc(-c2ccc(-n3nncc3-c3ccco3)cc2)cs1
    i	4.1%
- COC(=O)c1cc(N/C(N)=N/c2nc(C)cc(C)n2)cc(C(=O)OC)c1
    -8.5%	-9.0%
- CCOC(=O)C(Oc1ccc(=O)n(-c2ccccc2)n1)C(C)=O (stereo not drawn)
    i	-7.3%
- O=c1c2ccccc2oc2nc3n(c(=O)c12)CCCS3
    -23.9%	-10.5%
- COCCNC(=O)C1CCCN(C(=O)C2(c3ccc(Cl)cc3)CCCC2)CC1 (stereo not drawn)
    i	-8.9%
- O=C(CCSCc1cccc(F)c1)NCCc1ccccc1
    -4.0%	-3.3%&-5.9%
- CCOc1ccccc1CN1CCN(C2CCC2)CC1CCO (stereo not drawn)
    i	0.7%
- COc1ccc(Nc2cc(C)nc3c(C)cccc23)cc1OC
    -9.6%	-19.6%
- CCCCC1CCC(c2nc(-c3cccnc3)no2)CC1 (stereo not drawn)
    x	-15.3%
- CC(C)(C)C(=O)Nc1cccc2[nH]ncc12
    i	-7.3%
- COc1ccc(/C=N/NC(=O)CCc2nc3ccccc3[nH]2)cc1
    -11.9%	5.9%
- COc1ccc2nc(NC(=O)c3cccnc3SC)sc2c1
    i	-9.8%
- COc1ccc(NC(=O)COc2ccccc2C(=O)Nc2ccccc2)cc1
    -14.1%	-10.2%
- CCCCCCCCCCCCCC(=O)N[C@H](C)[C@@H](O)c1ccccc1
    -11.9%[3.33 µM]	-7.9%[3.33 µM]
- COc1ccc(C(=O)NCC(=O)NCCc2c[nH]c3ccccc23)cc1OC
    -4.3%	-6.0%
- N#C/C(=C\C=C\c1ccccc1[N+](=O)[O-])C(=O)NCc1ccccc1
    -29.6%	-16.6%
- COc1ccc(OCC(O)Cn2c(N3CCCCC3)nc3c2c(=O)n(C)c(=O)n3C)cc1 (stereo not drawn)
    -3.9%	-15.7%
- COCCCNC(=O)CN1CCN(Cc2ccc(Cl)cc2)C1=O
    i	-5.2%
- C[C@H](CO)N1C[C@H](C)[C@H](CN(C)Cc2ccc(Oc3ccccc3)cc2)Oc2ccc(NC(=O)Nc3cccc4ccccc34)cc2CC1=O
    u	u
- CC(C)Cn1c(N)c(C(=O)COC(=O)Cc2cccs2)c(=O)n(C)c1=O
    -17.3%	-8.1%
- CC(C)CC(NC(=O)OC(C)(C)C)C(=O)NC(C(=O)NC(C)C(N)=O)C(C)C (stereo not drawn)
    -3.0%	-1.3%
- O=c1nc(-c2ccccc2)nc(-c2ccccc2)[nH]1
    i	-1.0%
- Cn1c(SCc2nnc3n2CCCCC3)nc2ccccc21
    i	-5.6%
- COc1cccc(NC(=O)C/C(C)=N/NC(=O)C2CCCCC2)c1
    i	-6.1%
- O=C(NCc1ccccc1Cl)c1ccc2nc([C@H]3C[C@H](O)[C@@H](CO)O3)[nH]c2c1
    -14.6%	-10.1%
- COc1cc(NS(=O)(=O)c2ccc(NC(=O)CCC(=O)O)cc2)nc(OC)n1
    -11.6%	-6.1%
- CCCCn1c(NCc2ccccc2NS(=O)(=O)c2ccc(C)cc2)nc2ccccc21
    x	u
- Cc1ccc(NC(=O)Cc2nc(COC(=O)c3c(F)cccc3Cl)cs2)cc1
    u	-13.4%
- COc1ccc(NC(=O)c2ccc3c(=O)n4nc(Nc5cc(C)ccc5C)sc4nc3c2)cc1
    -6.4%[7.34 µM]	-15.2%[7.34 µM]
- COc1ccc(C(=O)Nc2cc(OC)c(NC(=O)c3ccco3)cc2OC)cc1
    -15.9%	-0.5%
- CC(=O)N1CCCC1c1nc2ccccc2n1Cc1cccc(Cl)c1 (stereo not drawn)
    -11.3%	-0.4%
- CCNC(=S)N(Cc1ccc2c(c1)OCO2)C1CC(=O)N(c2ccc(F)cc2)C1=O (stereo not drawn)
    x	0.1%
- CCCNC(=O)CSc1nc(-c2ccc(OC)cc2)cc(C(F)(F)F)n1
    -9.9%	-8.4%
- O=C(CCN1C(=O)c2ccccc2S1(=O)=O)Nc1ccc(F)c([N+](=O)[O-])c1
    -20.4%	-14.7%
- CCOc1ccc(-c2nc(C#N)c(N3CCOCC3)o2)cc1
    -7.0%	-7.8%
- CC1(C(=O)Nc2cnc3ccccc3c2)CCN1Cc1ccc(-c2ccccc2)o1 (stereo not drawn)
    1.3%	3.8%
- Cc1c(N(C)S(=O)(=O)c2cc(C(=O)NCC3CCCO3)ccc2Cl)c(=O)n(-c2ccccc2)n1C (stereo not drawn)
    -8.6%	-7.4%
- CC1(C)Cc2ccccc2C(NNC(=O)c2ccncc2)=N1
    i	-8.4%
- CCN(CC)CCNC(=O)c1ccccn1
    x	-10.7%
- COCC(=O)Nc1cc(C(=O)Nc2cccc(C)c2C)ccc1Cl
    -9.1%	0.0%
- Cc1nc2c(c(C)nn2-c2ccccc2)c(C)c1C
    i	-10.6%
- CC(O)CNc1nc2ccccc2n1CC(=O)NC12CC3CC(CC(C3)C1)C2 (stereo not drawn)
    i	3.8%
- COc1ccc(CNS(=O)(=O)CCNC(=O)c2cccc(OC)c2)cc1
    i	-7.0%

More results.
Value order – Vaccinia mCherry	Vaccinia Venus
- COC(=O)c1ccc(N(CC(=O)NC2CCCC2)C(=O)c2ccc(C)s2)cc1
    -4.8%	-2.8%
- COC(=O)CCC(=O)Nc1ccc(S(=O)(=O)Nc2nc(C)cc(C)n2)cc1
    -2.6%	2.4%
- CCN(CC)C(=O)c1sc(N)c(C#N)c1C
    x	-12.9%
- Cc1ccnn1-c1ccc(C(=O)OCC(=O)Nc2ccc(F)cc2)cc1
    -10.8%	-13.1%
- COc1cc2[nH]c(=O)n(Cc3ccc(C(=O)N4CCN(c5cccc(C)c5C)CC4)cc3)c(=O)c2cc1OC
    -12.3%	-14.5%
- O=C(NCc1ccncc1)[C@@H]1CCCN1C(=O)[C@H]1CCCN1
    -5.4%	1.6%
- O=c1cnnc(Nc2cccc(C(F)(F)F)c2)[nH]1
    i	-7.6%
- CN(C)C(CNC(=O)C1CCCN1C(=O)c1cccs1)c1ccccc1 (stereo not drawn)
    i	-9.6%
- Cn1c(=O)c2c(nc(CCC3CCCC3)n2C)n(C)c1=O
    -22.5%	-23.2%
- Cn1c(=NC(=O)CCS(=O)(=O)c2ccccc2)sc2cc(F)ccc21
    -23.8%	-2.9%
- COc1cc(C)c(NC(=O)Cc2ccsc2)cc1OC
    -9.0%	-12.9%
- C=CCOC(=O)C1=C(C)NC(=O)NC1/C=C/c1ccccc1 (stereo not drawn)
    x	-13.2%
- N#Cc1cc(S(=O)(=O)N2CCOCC2)ccc1N1CCOCC1
    -9.4%	-17.7%
- CS(=O)(=O)N1CCCC(C(=O)Nc2ccccc2F)C1 (stereo not drawn)
    i	-2.9%
- Cc1c(NC(=O)C(CC(=O)O)NCc2ccco2)c(=O)n(-c2ccccc2)n1C (stereo not drawn)
    x	-11.1%
- CCOc1ccc(S(=O)(=O)N2CCOCC2)cc1[N+](=O)[O-]
    i	-14.6%
- COc1ccc(S(=O)(=O)N(C)C[C@H]2Oc3ccc(NS(=O)(=O)c4ccc(F)cc4)cc3C(=O)N([C@H](C)CO)C[C@@H]2C)cc1
    i	-12.9%
- O=C(NCc1ccccc1)C(=O)NCC1OCCN1S(=O)(=O)c1ccc2c(c1)OCCO2 (stereo not drawn)
    i	-22.1%
- Cc1nn(C)c2c1c(-c1ccccc1)cc(=O)n2Cc1ccc(F)cc1Cl
    -7.2%	1.9%
- Cc1cc(C(=O)N/N=C/c2c(C)nn(-c3ccccc3)c2C)n[nH]1
    i	-14.0%
- Cc1cc(OCc2cc(C(=O)NCc3cc(C(C)C)no3)no2)cc(C)c1Cl
    -22.0%	-20.4%
- CC(C)(C)C1CCc2[nH]c3ccccc3c(=O)c2C1 (stereo not drawn)
    -13.6%	-8.2%
- N#CCCN1CCNCC1
    x	-5.2%
- CCOC(=O)C1(Cc2ccc(OC)cc2)CCN(C(=O)C2=CCCC2)CC1
    i	-18.2%
- O=C(Nc1ccc(F)c(F)c1)c1oc2ccccc2c1NC(=O)C1CCCO1 (stereo not drawn)
    2.9%	4.2%
- O=C(NC1CC(=O)N(c2ccc(Cl)cc2)C1)c1ccc(S(=O)(=O)N2CCCC2)cc1 (stereo not drawn)
    -19.0%	-13.7%
- O=C(O)c1cc(Cl)ccc1OS(=O)(=O)c1ccc(Cl)s1
    -15.3%	-6.9%
- NC(=O)[C@H]1CC2(CC(c3cccc(NC(=O)COc4ccc(Cl)cc4)c3)=NO2)CN1C(=O)CC(c1ccccc1)c1ccccc1 (stereo partly drawn)
    -25.4%	u
- CN(c1ccccc1C(=O)O)S(=O)(=O)c1ccc2[nH]c(=O)oc2c1
    -10.1%	-11.4%
- CCOc1ccc(-c2nc(Cn3ccn4nc(-c5ccc(OCC)c(Cl)c5)cc4c3=O)c(C)o2)cc1
    -10.6%	-7.7%

Quoted at random: 2 records from the list, in no set order.
Value order – Vaccinia mCherry	Vaccinia Venus
- Cc1c(NC(=O)C(CC(=O)O)NCc2ccco2)c(=O)n(-c2ccccc2)n1C (stereo not drawn)
    x	-11.1%
- CCOc1ccc(-c2nc(C#N)c(N3CCOCC3)o2)cc1
    -7.0%	-7.8%

(continued)
Value order – Vaccinia mCherry	Vaccinia Venus
- S=C(Nc1ccccc1)N1CCn2c1nc1ccccc12
    i	-4.7%
- Cc1c(Cl)cccc1NC(=O)Nc1cccnc1
    -21.4%	-27.0%
- CCC1CN(C(=O)N2CCC(C(=O)NCc3ccc(N(C)C)cc3)CC2)c2ccccc2O1 (stereo not drawn)
    -4.1%	-3.8%
- CC(C)C(=O)NCC(c1cccs1)S(=O)(=O)c1ccc(F)cc1 (stereo not drawn)
    i	-8.2%
- NC(Cc1ccccc1)c1csc(NC(=O)c2cccc(OC(F)(F)F)c2)n1 (stereo not drawn)
    u	u
- CCCCc1c(-c2ccccc2)ncn1CCc1ccccc1OC
    u	u
- CC1Cn2c(C(=O)NCc3cccc(Br)c3)cc3cccc(c32)S1 (stereo not drawn)
    -10.8%	-6.1%
- COC(=O)c1ccccc1S(=O)(=O)N(Cc1ccco1)Cc1cc2cc(OC)ccc2[nH]c1=O
    -15.8%	-5.8%
- O=C(N/N=C\c1ccc(Cl)s1)c1ccc(Cn2cccn2)o1
    -3.0%	-2.9%
- Cc1cc(C(=O)Nc2cccnc2)cs1
    -11.1%	-6.6%
- COc1ccc(/C=C2\Sc3ccc(C(=O)NCc4cccnc4)cc3N(C)C2=O)cc1OC
    i	-13.3%
- CC1CCCC(NC(=O)c2ccc3c(=O)n(CC4CCCO4)c(=O)[nH]c3c2)C1C (stereo not drawn)
    i	-6.9%
- COCCNC(=S)N(CCc1c(C)[nH]c2ccc(C)cc12)Cc1ccco1
    -22.8%	-20.0%
- NS(=O)(=O)c1ccc(CNC(=O)c2ccc3ccccc3n2)cc1
    0.8%	1.2%
- O=C1CC(C(=O)Nc2ccccc2)S/C(=N\N=C\c2ccco2)N1 (stereo not drawn)
    -6.7%	6.0%
- Cc1ccccc1-n1ncc2c1CC(C)(C)CC2NC(=O)CCCN1CCCC1=O (stereo not drawn)
    -23.6%	-13.8%
- CCN(CC)CCCNC(=O)CCC(=O)NNc1nc2ccccc2c2nc(C)nn12
    -4.5%&-3.8%	0.0%&13.1%
- CCc1cccc(CC)c1NC(=O)c1ccc(-c2cc(Cl)ccc2Cl)o1
    5.4%	-10.3%
- CCOc1ccc(NC(=O)CN2CCN(CC(=O)Nc3ccc(C(=O)OC)cc3)CC2)cc1
    x	-18.5%
- CCCCNC(=O)C1CCN(S(=O)(=O)N2CCOCC2)CC1
    i	-7.8%
- CCn1nc(C(=O)NNC(=O)CCOc2cc(C)ccc2C)c2ccccc2c1=O
    -17.9%	-14.5%

Compound activity: PubChem BioAssay, National Center for Advancing Translational Sciences (NCATS)
